Bioassay records from PubChem.
STK33 kinase inh = inhibitors of purified STK33 kinase, primary screen, biochemical, ADP-Glo luminescence, homogeneous, cell-free; Serine/threonine-protein kinase 33 (Homo sapiens), Q9BYT3; MBP phosphorylation; inhibition, % at 10 µM; actives 0.073% (n = 320,000); AID 2661, 2010;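 active means inhibition at or above 25%, using the most active replicate where run in duplicate; inactive means inhibition below 25%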
Target sequence (Q9BYT3 whole entry, looked up): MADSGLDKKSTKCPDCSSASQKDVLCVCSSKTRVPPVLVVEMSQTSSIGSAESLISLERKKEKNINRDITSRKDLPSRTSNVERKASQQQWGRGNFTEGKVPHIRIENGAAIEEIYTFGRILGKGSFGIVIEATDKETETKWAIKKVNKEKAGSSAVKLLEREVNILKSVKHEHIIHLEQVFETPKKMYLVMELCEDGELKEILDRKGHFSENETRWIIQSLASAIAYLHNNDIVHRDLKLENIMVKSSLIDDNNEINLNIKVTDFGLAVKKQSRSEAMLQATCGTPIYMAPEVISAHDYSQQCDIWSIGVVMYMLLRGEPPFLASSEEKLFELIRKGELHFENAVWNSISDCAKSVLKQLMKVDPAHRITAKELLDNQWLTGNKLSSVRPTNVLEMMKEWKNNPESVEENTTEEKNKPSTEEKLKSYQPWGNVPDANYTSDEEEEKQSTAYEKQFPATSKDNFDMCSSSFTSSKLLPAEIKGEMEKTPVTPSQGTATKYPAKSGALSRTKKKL
OX1R FRET antag = antagonists of human orexin 1 receptor (OX1R). OX1R-expressing cells, FRET antagonist read-out. inhibition, % at 6.6 µM. actives 1.8% (n = 330,000); in the data active means inhibition mostly above about 38%, no sharp cut-off; inactive means mostly below about 40%;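 further: 0% = agonist challenge alone and 100% = reference antagonist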
Target sequence (O43613 whole entry, looked up): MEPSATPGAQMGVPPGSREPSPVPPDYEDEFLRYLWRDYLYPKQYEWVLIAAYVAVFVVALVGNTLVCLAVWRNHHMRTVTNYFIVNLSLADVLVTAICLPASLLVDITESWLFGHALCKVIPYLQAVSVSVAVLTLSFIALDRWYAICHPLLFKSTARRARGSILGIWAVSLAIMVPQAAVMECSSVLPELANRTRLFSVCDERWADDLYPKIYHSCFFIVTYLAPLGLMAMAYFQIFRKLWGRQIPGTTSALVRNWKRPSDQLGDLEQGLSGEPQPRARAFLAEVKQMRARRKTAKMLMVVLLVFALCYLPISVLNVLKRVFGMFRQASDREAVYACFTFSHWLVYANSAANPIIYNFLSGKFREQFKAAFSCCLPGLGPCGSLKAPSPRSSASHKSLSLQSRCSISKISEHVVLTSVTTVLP
The depositor's hits bear a star; . = not tested or not shown.

structure | STK33 kinase inh | OX1R FRET antag
Cc1ccccc1NS(=O)(=O)c1cccc(C(=O)Nc2cccc(C(=O)O)c2)c1 | . | 22
O=C(NCc1ccc2c(c1)OCO2)c1ccc2c(c1)OCO2 | -0.6 | 0
CCCCn1c(NCc2ccncc2)nc2ccccc21 | 0.1 | 19
Cc1cccc(NC(=O)C(Cc2ccccc2)c2nn[nH]n2)c1C (stereo not given) | -1.8 | 4
O=C(COC(=O)c1cccc(NC(=O)c2ccco2)c1)c1ccc(Br)cc1 | 1.2 | 33
CCCCN(C)C(=O)C(Cc1ccccc1)NS(=O)(=O)c1ccc2c(c1)c(=O)n(C)c(=O)n2C (stereo not given) | -0.1 | 9
CCC(C)(C)NC(=O)C(c1ccc(OC)cc1)N(C(=O)CCC(=O)Nc1cc(C)on1)C1CC1 (stereo not given) | 0.8 | 5
CCN1Cc2c(/C=C/c3ccccc3)nc3ccc(OC)cc3c2N(c2cccc(Cl)c2)C1 | -0.2 | 11
CC1(/[N+]([O-])=C/c2cccc(Cl)c2)CCCCC1=O (stereo not given) | 0.8 | 0
Cc1c(NC(=O)c2cnc(Cl)c(Cl)c2)c(=O)n(-c2ccccc2)n1C | 0.0 | 5
C/C(=N\NC(=O)c1cc2ccccc2cc1O)c1ccc2c(c1)OCO2 | -1.2 | 12
CN(C1=NC(=O)CS1)c1ccc(O)cc1 | -1.5 | 6
O=C(COC(=O)c1cnccn1)NCc1ccc(Cl)cc1 | -0.6 | 13
CCOC(=O)C1=C(C)NC(=O)NC1c1cccc(O)c1 (stereo not given) | -0.5 | 7
Cc1ccc(S(=O)(=O)Nc2cccnc2Oc2ccc(Cl)cc2)cc1 | -0.8 | 4
O=C1CNC(=S)N1CCCn1ccnc1 | 0.3 | 27
N#Cc1c(-c2ccccc2)nc(-c2cccnc2)[nH]c1=O | 1.1 | 11
O=C(NN1CCOCC1)c1cccc(COc2cccc(Br)c2)c1 | -1.3 | 7
COC(=O)c1cc(COC(=O)c2nc3nccc(C)n3n2)oc1C | 2.3 | 16
NC(=O)c1nc(-c2ccccc2)c(-c2ccccc2)[nH]c1=O | -0.7 | 18
CC(C)(C)c1ccc(C(=O)N/C(=C/c2cccs2)C(=O)NCc2ccco2)cc1 | -1.4 | 8
CNC(=O)C1=NCCCc2cc(OC)c(OC)cc21 | 0.0 | 11
COc1ccc(Br)cc1S(=O)(=O)Nc1ncccc1C | -0.5 | 15
Cc1ccc(O)c(NC(=O)C2CCCCC2)c1 | -1.1 | 2
CCS(=O)(=O)N1Cc2ccccc2CC1C(=O)Nc1ccc(F)c(F)c1 (stereo not given) | -1.2 | 9
Cc1ccccc1C(=O)Oc1ccccc1N1C(=O)C2CC=CCC2C1=O (stereo not given) | . | 33
Cc1ccc(/C(COc2ccccc2O)=N\O)cc1 | 1.2 | 14
O=C(Cn1nc(C(=O)O)c2ccccc2c1=O)Nc1ccc2c(c1)OCO2 | -0.5 | 20
COc1cc(CNn2c(C)n[nH]c2=S)cc(Br)c1OCc1ccc(F)cc1 | -1.2 | 29
O=C(NCCOc1ccccc1)c1ccccc1[N+](=O)[O-] | 0.4 | 14
Cc1c(C)n(CCCN(C)C)c2ncnc(Nc3ccccc3)c12 | 0.0 | 8
COc1ccc(-c2cnn3c4c(c(C)nc23)CCN4C(C)C)cc1OC | -0.9 | 16
Cc1nc(Cl)c(S(N)(=O)=O)c(C)c1Cl | -2.3 | 11
CCCC(=O)N=c1sc2cccc(F)c2n1C | -0.7 | 11
O=C(O)c1ccccc1C(=O)c1cccs1 | -1.4 | 12
CC(=O)N1Cc2cc(N)ccc2Oc2ccccc21 | -0.5 | 9
CCC(=O)Nc1ccc(Cl)c(NC(=O)C(C)C)c1 | 0.0 | 6
CC(C)OC(=O)c1ccc(S(N)(=O)=O)o1 | 0.3 | 4
CC(=O)N(c1ccc(C(F)(F)F)cc1)S(=O)(=O)c1ccc(N2C(=O)CCC2=O)cc1 | 5.5 | -2
CNC(=S)N/N=C/c1ccc(-c2ccc(Cl)c([N+](=O)[O-])c2)o1 | 0.4 | 62

Next section (four carried over from the part before).
structure | STK33 kinase inh | OX1R FRET antag
CCC(=O)Nc1ccc(Cl)c(NC(=O)C(C)C)c1 | 0.0 | 6
CC(C)OC(=O)c1ccc(S(N)(=O)=O)o1 | 0.3 | 4
CC(=O)N(c1ccc(C(F)(F)F)cc1)S(=O)(=O)c1ccc(N2C(=O)CCC2=O)cc1 | 5.5 | -2
CNC(=S)N/N=C/c1ccc(-c2ccc(Cl)c([N+](=O)[O-])c2)o1 | 0.4 | 62
NS(=O)(=O)c1ccc(NC(=O)CSc2nc3ccccc3n2-c2ccccc2)cc1 | -0.8 | 6
COC(=O)c1ccccc1NC(=O)CSc1[nH]c(=O)cc(C)c1C#N | -1.0 | 14
O=C(Nc1ccc(Br)cn1)c1coc(=O)c(Br)c1 | -0.8 | 9
CCN=c1scc(-c2ccccc2)n1/N=C/c1ccccn1 | -1.6 | 30
O=c1[nH]c(=S)[nH]nc1Cc1ccccc1 | -1.1 | 12
Cc1ccc(N2CCN(C(=S)c3ccc(-c4ccccc4[N+](=O)[O-])o3)CC2)cc1 | 1.0 | 25
Cc1ccc(NC(=O)Nc2cc(C(F)(F)F)c[nH]c2=O)cc1 | 0.2 | 38
CCC(C)NS(=O)(=O)c1ccc(NC(=O)c2cccs2)cc1 (stereo not given) | -0.1 | 28
O=C(Nc1ccc2oc(Cc3ccc(Cl)cc3)nc2c1)c1cccnc1 | -1.0 | 13
COc1cnc(-c2ccccc2)nc1Oc1cccc(C)c1 | -1.2 | 38
O=C(Nc1cccc(-c2nnc(-c3ccco3)o2)c1)c1ccccc1 | 0.9 | 34
Cc1ccc(-n2c(-c3ccc(Cl)cc3)n[nH]c2=S)c(C)c1 | 0.4 | 16
Cc1cccnc1NC(=O)CN1C(=O)NC(C)(c2ccc3ccccc3c2)C1=O (stereo not given) | -0.2 | 8
Nc1cc(N2CCCCC2)c([N+](=O)[O-])cc1Cl | . | 26
CNC(=S)Nc1cc(Cl)ccc1Oc1ccccc1 | 0.1 | 1
CC1=NC(=O)C(N=Nc2ccccc2)N1c1ccccc1 (stereo not given) | -0.6 | 26
Cc1cc(C)c2cc(C#N)c(NCCNC(=S)NCCCN3CCOCC3)nc2c1 | 0.6 | 21
Cc1cccc(N2CCN(C(=O)CN(C)S(=O)(=O)c3ccc4c(c3)CCC(=O)N4)CC2)c1C | -0.4 | 9
CN(C)S(=O)(=O)c1cccc(NC(=O)COC(=O)c2cccn2C)c1 | -0.2 | 10
N#CC1=C(N)Nc2nc3ccccc3n2C1c1ccc(F)cc1 (stereo not given) | 0.6 | 6
O=C(c1ccc(Cl)cc1[N+](=O)[O-])N(Cc1ccccc1)Cc1ccccc1 | -1.7 | 12
O=C(Nc1ccc2nc3n(c(=O)c2c1)CCCCC3)C(=O)N1CCN(c2ccccc2)CC1 | -0.5 | 5
COc1ccc(N/C=C(\C2OC(=O)c3ccccc32)[N+](=O)[O-])cc1 (stereo not given) | -0.1 | 16
CCN(CC(=O)Nc1c(F)cccc1F)C(=O)CCc1nc2cc(S(=O)(=O)N(C)C)ccc2n1CC | 0.1 | 13
CC(=O)NS(=O)(=O)c1ccc(NC(=O)CCc2ccccc2)cc1 | -0.3 | 17
CC(=O)NC(CCS(C)(=O)=O)C(=O)Nc1ccc(Oc2ccccc2)cc1 (stereo not given) | -0.8 | 7
CCOC(=O)C1CCCN(Cc2ccc(-c3ccccc3)cc2)C1 (stereo not given) | 4.2 | -3
Cc1ccc(C(=O)Nc2ccc(NC(=O)c3cccs3)cc2)cc1[N+](=O)[O-] | -2.0 | 16
CCOC(=O)C1CCCCN1Cc1ccc(C(F)(F)F)cc1 (stereo not given) | -3.6 | 26
CCN1CCCC1CNC(=O)c1cc(COc2ccc(C)c(C)c2)on1 (stereo not given) | -1.8 | 2
Cc1cc(NC(=O)CN2C(=O)NC3(CCCCC3)C2=O)no1 | 0.2 | 4
O=C(O)Cn1ccnc1 | -1.8 | 33
CC1(C)Cc2[nH]c(=O)c(C#N)cc2CS1 | 2.3 | -5
COc1ccccc1COn1c(=O)c(-c2ccco2)[n+]([O-])c2ccccc21 | 3.1 | 48
Cc1cc(C(=O)Cn2nnc3ccccc3c2=O)c(C)n1-c1c(C)n(C)n(-c2ccccc2)c1=O | 2.1 | 20
Cc1ccc2nc(-c3ccc(NC(=O)CN4C(=O)c5ccccc5C4=O)cc3)sc2c1 | -0.3 | 19
CC(C)NC(=O)COC(=O)c1ccc(Oc2ccccc2)cc1 | -0.9 | 18
O=C(COC(=O)c1cc[n+]([O-])cc1)Nc1cccc(Cl)c1Cl | 0.4 | 7
CC(C)C(=O)Nc1ccc2nn(-c3ccc(F)cc3)nc2c1 | -1.0 | 52
O=C(NCc1ccco1)c1ccc(C(=O)NCc2ccco2)s1 | 0.8 | 23
O=C(NCC1CCCO1)c1ccc2c(=O)n(CCc3ccccc3)c(=O)[nH]c2c1 (stereo not given) | -2.2 | 19
COCOc1ccc(C2CC(=O)c3c(OCOC)cc(OCOC)cc3O2)cc1 (stereo not given) | -0.4 | 12
CCOC(=O)c1c(-c2ccccc2)oc2ccc(OCC(=O)O)cc12 | 9.0 | 15
COC(=O)CCC/C=C1\SC[C@@H](NC(=O)c2ccccc2)C1NC(C)=O (stereo not given in full) | -0.3 | 15
CC(=O)Nc1ccc(S(=O)(=O)Nc2nc3ccccc3nc2Nc2cccc(S(N)(=O)=O)c2)cc1 | -0.3 | 6
CCc1ccc(C(=O)NNc2ccc(Cl)cc2)cc1 | -0.7 | 4
CC1Cc2ccccc2N1C(=O)CSc1nnc2c(n1)[nH]c1ccc(F)cc12 (stereo not given) | 1.7 | 34
Cc1ccc(-c2nn(-c3ccccc3)cc2C(=O)N2CCN(c3ccccn3)CC2)cc1 | -0.4 | 9

One compound at a time, as listed above.
CCc1ccc(C(=O)NNc2ccc(Cl)cc2)cc1 is entered as STK33 kinase inh: -0.7; OX1R FRET antag: 4
COC(=O)CCC/C=C1\SC[C@@H](NC(=O)c2ccccc2)C1NC(C)=O (stereo not given in full) is entered as STK33 kinase inh: -0.3; OX1R FRET antag: 15

Retrieved by compound from the entries so far:
structure | STK33 kinase inh | OX1R FRET antag
CC(=O)Nc1ccc(S(=O)(=O)Nc2nc3ccccc3nc2Nc2cccc(S(N)(=O)=O)c2)cc1 | -0.3 | 6
CC1Cc2ccccc2N1C(=O)CSc1nnc2c(n1)[nH]c1ccc(F)cc12 (stereo not given) | 1.7 | 34
O=C(NCC1CCCO1)c1ccc2c(=O)n(CCc3ccccc3)c(=O)[nH]c2c1 (stereo not given) | -2.2 | 19
COCOc1ccc(C2CC(=O)c3c(OCOC)cc(OCOC)cc3O2)cc1 (stereo not given) | -0.4 | 12
Cc1ccc(-c2nn(-c3ccccc3)cc2C(=O)N2CCN(c3ccccn3)CC2)cc1 | -0.4 | 9

The listing continues:
structure | STK33 kinase inh | OX1R FRET antag
COc1ccc(Cn2c(=O)[nH]c3cc(C(=O)NCCCN4CCCC4)ccc3c2=O)cc1 | 2.1 | 8
C#CCNC(=O)C1=C[C@@H](c2ccccc2)[C@H](CCCO)[C@@H](OCC)O1 | -0.6 | 26
Cc1cccc(N2CCN(C(=S)c3ccc([N+](=O)[O-])cc3)CC2)c1 | -2.0 | 25
O=C(CN1CCOc2ccccc21)NCc1ccc(Cl)cc1 | -0.8 | 21
COc1cccc(/C=C/C(=O)OCC(=O)NCCc2ccccc2)c1 | -1.5 | 10
CCN1CCN(c2ccc([N+](=O)[O-])c(Sc3nc4ccccc4[nH]3)c2)CC1 | -2.6 | 23
Cc1ccc(CCCNC(=O)C2CCC(=O)N(Cc3cccc(F)c3)C2)cc1 (stereo not given) | 0.8 | 23
Cc1ccccc1C(=O)NNS(=O)(=O)c1cccc([N+](=O)[O-])c1 | -1.4 | 13
COc1ccc(S(N)(=O)=O)cc1C(=O)OCCCOC(=O)c1cc(S(N)(=O)=O)ccc1OC | -1.2 | 30
OCCc1c[nH]c2ccccc12 | 0.4 | 7
NC(=O)c1ccc2c(c1)OCCO2 | -0.4 | 21
CCC1(C)Cc2nc3[nH]c(=S)n(-c4ccccc4)c(=O)c3cc2CO1 (stereo not given) | 0.9 | 10
CC(=O)c1c(C)oc2c1C(=O)c1ccccc1C2=O | -0.6 | 28
CCc1ccccc1NC(=O)NNC(=O)CCc1ccccc1 | 0.4 | 17
COc1ccc(S(=O)(=O)N2CCC(C(=O)N3CCN(C)CC3)CC2)cc1OC | -1.2 | 7
NC(=O)c1cc2cc([N+](=O)[O-])ccc2oc1=O | 1.5 | 36
CCCCCCCCCCCC(=O)N/N=C/c1ccco1 | -1.4 | 12
CCCCc1ccc(Nc2nc(CCC)cc(=O)[nH]2)cc1 | 0.2 | 16
CCOc1ccc2nc(N/C(N)=N/C(=S)Nc3ccc(C)c(C)c3)nc(C)c2c1 | -0.4 | 23
CC(NS(=O)(=O)c1ccccc1)C(=O)NC1CCCC1 (stereo not given) | 0.5 | 7
Cc1cc(NC(=O)C2COc3ccccc3O2)no1 (stereo not given) | -1.8 | 14
Cc1ccccc1Nc1nc(N)nc(COc2ccc(C#N)cc2)n1 | -0.8 | 14
COc1cccc(OCc2nnc(SCC(=O)NCc3ccco3)n2C)c1 | -0.8 | 12
CCSc1nnc(NC(=O)C(C)(C)C)s1 | -1.2 | 10
CCCc1nnc(SCC(=O)N2CCCCC2)n1CC1CCCO1 (stereo not given) | -1.0 | 15
CC(SCc1ccccc1)C(=O)N/N=C/c1cccs1 (stereo not given) | -0.9 | 4
OCC1(Cc2ccc(Cl)cc2)CCN(CCCc2ccccc2)CC1 | -1.0 | 2
Cc1nn(CCC#N)c(C)c1Oc1ccccc1O | -0.8 | 6
Cc1ccc(N2C(=O)C(O)(C(F)(F)F)C3=C2CC(C)(C)CC3=O)cc1 (stereo not given) | -1.8 | 22
O=C(Cc1ccc(Cl)cc1)N/N=C/c1ccncc1 | 1.6 | 45
CSc1oc(-c2ccccc2)nc1S(=O)(=O)c1ccc(C)cc1 | -0.1 | 16
CC(=O)c1cccc(Nc2nc(-c3sc(N)nc3C)cs2)c1 | 0.2 | 4

Only part of the results is shown, and most or all hits are left out here.
